# TRPV1 PAM: HTS Assay for Compounds that Act as Potentiators of the Vanilloid Receptor 1; Transient receptor potential cation channel subfamily V member 1 (Homo sapiens), Q8NER1; TRPV1-expressing cells, Fluo-8 calcium influx, capsaicin EC20 potentiation; host cell line not named in the record; control for the full effect not named in the record; potentiation, % at 8.33 µM; 0.02% of 320,000 active; AID 540277, 2011; active means potentiation above 80%; inconclusive means 30% to 80%; inactive means below 30%; further: 0% is about no effect
#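 Fluo-8 calcium influx in TRPV1-expressing cells, kinetic read (ex 480/em 520 nm). Compound added and read 3 min for agonist activity, followed by capsaicin at EC20 final and 2 min further read for enhancement.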
# TRPML1 ag: qHTS for Agonists of the Human Mucolipin Transient Receptor Potential 1 (TRPML1). Mucolipin-1 (Homo sapiens), Q9GZU1. TRPML1-expressing cells, Ca2+ dye fluorescence, FDSS; host cell line not named in the record; reference of the full effect not given here. activation, % (no concentration beside the values). 0.12% of 410,000 active. AID 624414, 2012; in the data active = activation above about 50%; inconclusive = about 30% to 50%; inactive = below about 30%; further: 0% is about no effect; the text of the record puts the active cut at 80%
# Target sequence (Q9GZU1 whole entry, looked up): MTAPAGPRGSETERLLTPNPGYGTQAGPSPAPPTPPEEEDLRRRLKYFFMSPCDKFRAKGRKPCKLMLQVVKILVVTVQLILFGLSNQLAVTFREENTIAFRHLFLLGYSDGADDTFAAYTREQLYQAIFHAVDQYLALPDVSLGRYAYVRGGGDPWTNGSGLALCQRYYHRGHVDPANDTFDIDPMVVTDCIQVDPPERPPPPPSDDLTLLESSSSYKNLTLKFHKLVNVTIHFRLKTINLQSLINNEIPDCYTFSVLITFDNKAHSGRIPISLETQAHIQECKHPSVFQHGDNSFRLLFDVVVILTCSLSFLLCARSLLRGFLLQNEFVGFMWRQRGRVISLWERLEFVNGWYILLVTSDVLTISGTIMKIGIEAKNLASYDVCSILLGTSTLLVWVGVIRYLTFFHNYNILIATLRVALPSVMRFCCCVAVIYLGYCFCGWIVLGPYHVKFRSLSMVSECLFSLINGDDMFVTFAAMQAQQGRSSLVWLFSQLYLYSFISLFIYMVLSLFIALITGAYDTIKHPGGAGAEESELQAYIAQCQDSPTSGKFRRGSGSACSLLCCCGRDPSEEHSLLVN
#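 Tet-induced TRPML1-DL cells, 1,500 per well, cultured overnight, were loaded with a no-wash Ca2+ dye for 45–90 min. Calcium fluorescence was recorded on the FDSS for 110 s after compound addition, before the EC80 agonist (4 uM 54-4) was added.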
# PINK1 modulator: A Quantitative High throughput Screen to Identify Chemical Modulators of PINK1 Expression. PINK1 immunofluorescence, high-content cytometry, 24 h. Potency, µM (series often up to 76.6 µM), inactives show top-dose activation (PINK1 increase), usual class: activators. 0.2% of 410,000 active. AID 624263, 2012; active = well fitted activation curve with a large enough effect; inconclusive = small, poorly fitted or top-dose-only effect; inactive = flat fitted curve, though single readings scatter; cell line not stated here;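 further: potency means the concentration at half of the fitted maximal effect; % of control where 0% means no effect; nearly all actives have a fitted effect of over 65% in size; a mitochondrial uncoupler was the plate control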
#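 Stable cell line treated 24 h with compounds at 5 concentrations (CCCP controls), then fixed and immunostained for PINK1 plus nuclear and cell stains; PINK1 immunofluorescence quantified by laser-scanning microplate cytometry.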
# Menin-MLL FL inh: qHTS Assay for Inhibitors Targeting the Menin-MLL Interaction in MLL Related Leukemias: Competition With Fluorescein Labeled MLL-derived Peptide; Fluorescence polarization, fluorescein-MLL peptide displacement from menin; FP activity change, % at 61.4 µM; 290,000 tested, under 10 active; inconclusive = falling polarisation curve, or a change in total fluorescence; inactive = total fluorescence flat and polarisation flat or rising; no compound was filed as active; the % refers to the polarisation; negative = inhibition;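 further: % of control where 0% means no effect; inhibitors lower the polarisation; unlabelled MLL peptide was the positive control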
# ClpP mod: qHTS Assay for Activators of ClpP; 1.9% of 340,000 active; Potency, µM (titrated, usually from 57.5 µM), inactives show top-dose activity change, negative = active; purified B. subtilis ClpP, FRET peptide cleavage, 20 min; AID 651965, 2013; active = well fitted falling curve with a large enough effect; inconclusive = small, poorly fitted or top-dose-only effect; inactive = no such curve, though single readings can be large or run the other way; further: potency means the concentration at half of the fitted maximal effect; the source files actives as falling curves though it sought activators and does not explain the sign; nearly all actives have a fitted effect of over 65% in size; many hits overshoot -100%
# Target sequence (P80244 whole entry, looked up): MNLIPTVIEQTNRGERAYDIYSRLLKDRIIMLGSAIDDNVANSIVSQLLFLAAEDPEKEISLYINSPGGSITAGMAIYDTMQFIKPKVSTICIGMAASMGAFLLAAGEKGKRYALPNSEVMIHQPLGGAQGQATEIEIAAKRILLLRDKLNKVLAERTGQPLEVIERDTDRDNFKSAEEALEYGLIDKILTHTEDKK
#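 Purified B. subtilis ClpP, 10 microg/mL final in Tris/HCl pH8 with KCl, BSA, glycerol and Tween-20, cleaved an Abz/nitrotyrosine-quenched decapeptide. Fluorescence (ex 320, em 430) was read at 0 and 20 min at room temperature. Delta was normalized to 5.8 microM ADEP and DMSO/no-enzyme controls.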
# Sfp PPTase inh: qHTS Assay for Inhibitors of Bacillus subtilis Sfp phosphopantetheinyl transferase (PPTase). 4'-phosphopantetheinyl transferase ffp (Bacillus subtilis), Q9F4F7. Biochemical Sfp PPTase activity, qHTS. Potency, µM, for the others: max response, negative = inhibition, actives largely listed as inhibitors. 3.5% of 310,000 active; active means well fitted inhibition curve with a large enough effect; inconclusive means small, poorly fitted or top-dose-only effect, or another doubt; inactive means no such curve, though single readings can be large or run the other way;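 further: the enzyme is Sfp with the accession as filed and its product quenches rhodamine fluorescence; potency means the concentration at half of the fitted maximal effect; 0% = enzyme reaction without inhibitor and -100% = no enzyme wells; top concentration of the series not given in the record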
#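 After 15 min at room temperature with compound, 15 nM Sfp received 5 uM rhodamine-CoA plus 12.5 uM BHQ-2-ybbR (50 mM Hepes pH 7.6, 10 mM MgCl2). Rate came from the fluorescence difference over 30 min, ex 525/em 598 nm.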
# TRPML1 blocker: qHTS for Inhibitors of the Human Mucolipin Transient Receptor Potential 1 (TRPML1); TRPML1-inducible cells, Ca2+ dye fluorescence, FDSS; stronger effect = lower value; inhibition of EC80 agonist-evoked calcium signal; 0.02% of 390,000 active; activity change, negative = inhibition, % (test concentration not listed); Mucolipin-1 (Homo sapiens), Q9GZU1; in the data active means activity change below about -50%; inconclusive means about -30% to -50%; inactive means above about -30%;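 further: stimulus is agonist 54-4 at its EC80 concentration; on the % scale 0 is the no-effect control and ±100 the full control effect; compound concentration not given in the record; the text of the record puts the active cut at -80%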
#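 Calcium fluorescence in TRPML1-DL cells induced overnight with Tet: a 110 s read after compound pin addition, then a 110 s antagonist read after challenge with 54-4 at 4 uM final (EC80).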
# An asterisk follows results filed as active; ? = inconclusive; / = no result given; [ ] = remark or other dose.
SMILES,TRPV1 PAM,TRPML1 ag,PINK1 modulator,Menin-MLL FL inh,ClpP mod,Sfp PPTase inh,TRPML1 blocker
Cc1ccc(C)c(N(C(=O)CNC(=O)c2ccco2)C(C(=O)NC2CCCCC2)c2ccncc2)c1 (stereo not given),-1,1.4,6.3%,-8.0,/,7%,0
O=C(O)C1CCCCC1C(=O)Nc1cc(Cl)ccc1Cl (stereo not given),9,3.5,0.1%,-0.5,-1.3%,10%,-3
COc1ccc(-c2oc3cc(OC(C)=O)cc(OC(C)=O)c3c(=O)c2OC)cc1,/,-1.0,3.1%,/,/,/,8
CC(C)c1ccc(OCC(=O)NN2C(=O)c3ccccc3C2=O)c(Br)c1,7,/,1.2%,6.5,0.3%,2%,/
O=C(COc1cc2oc(=O)c3c(c2cc1Cl)CCC3)NCc1ccccn1,12,-0.4,3.6%,4.0,?,12%,-5
CC(C)N1C(=O)NC2NC(=O)N(C(C)C)C21 (stereo not given),/,-0.3,1.6%,/,2.5%,/,/
O=C(CCNC(=O)c1ccc(Cl)cc1)Nc1ccncc1,6,-1.0,-0.4%,/,-1.9%,/,6
Cc1cc(C(C)(C)C)oc1C(=O)Nc1ccc(CC(=O)O)cc1,-2,0.2,0.3%,0.0,0.1%,12%,-12
CCOC(=O)C1=C(c2ccccc2)NC(=O)NC1c1ccc(OC)c(OC)c1 (stereo not given),2,-0.2,0.3%,-3.2,/,8%,18
Cc1ccc2[nH]c3c(=O)n(CC(=O)NC(C)C)ncc3c2c1,/,2.0,1.2%,/,-15%,/,-7
CSCCC(NS(=O)(=O)/C=C/c1ccccc1)C(=O)NCCc1ccc(S(N)(=O)=O)cc1 (stereo not given),1,0.8,1.1%,1.2,/,23%,-8
C=CCSc1nccc(=O)[nH]1,0,0.5,1.5%,6.1,-3.8%,10%,2
Cc1ccc(NC(=O)CSCC(=O)NCc2ccco2)cc1,-30,-0.4,2.7%,/,/,/,-3
CC1(C(=O)NS(=O)(=O)c2cccc(Cl)c2)CCN1C(=O)Cc1ccc(Cl)cc1Cl (stereo not given),/,-0.5,2.6%,/,-8.1%,/,-3
CCC1(C)Cc2c(sc3nc(SC)n(Cc4ccccc4)c(=O)c23)CO1 (stereo not given),-8,-0.3,2.6%,2.1,-3.9%,6%,-24
CNCc1nc(-c2ccc[nH]2)c2cc(Cl)ccc2n1,/,-0.2,1.8%,/,-12%,/,/
C#CCOCCOCCOCCNc1nc(N2CCN(C(=O)[C@H]([C@@H](C)CC)n3cc([C@@H](N)CO)nn3)CC2)nc(N2CCN(C(=O)[C@H](Cc3cc4ccccc4[nH]3)n3cc([C@@H](N)Cc4ccc(O)cc4)nn3)CC2)n1,-10,/,/,?,/,?,/
COc1ccc(CNC(=O)c2ccc3c(c2)nc2n3CCCCC2)c(OC)c1,/,0.6,-0.3%,/,-0.7%,/,37
Cc1ccc(-c2nnc3sc(-c4ccncc4)nn23)cc1,-6,1.7,8.4%[38.3 µM],0.9,-2.8%,-2%,34
O=C1CC(CSc2ccc(Cl)cc2)=NN1,-2,2.6,-0.2%,0.5,-3.2%,9%,25
COc1cccc(/C=N/NC(=O)CO/N=C(\C)c2cccs2)c1OC,7,0.1,1.6%[38.3 µM],1.9,?,7%,-5
O=C(Nc1ncc(Cc2cccc(C(F)(F)F)c2)s1)c1ccc(-c2cccc([N+](=O)[O-])c2)o1,4,0.1,29%,6.0,0.9%,20%,7
CCCCOc1ccc(CN2CCSCC2)cc1,1,1.1,5.6%,1.8,-2.9%,-29%,29
Cc1nn(C)c(C)c1NS(=O)(=O)c1ccc(N2CCCC2=O)cc1,-3,-0.3,3.7%,0.9,/,5%,-7
O=C(CC(c1ccco1)C1CCCCC1=O)c1ccco1 (stereo not given),8,0.8,-0.2%,6.2,-2.9%,-5%,-1
# Continued:
SMILES,TRPV1 PAM,TRPML1 ag,PINK1 modulator,Menin-MLL FL inh,ClpP mod,Sfp PPTase inh,TRPML1 blocker
COc1ccc(N(CC(=O)NCCSCc2c(F)cccc2Cl)S(C)(=O)=O)cc1OC,2,0.0,1.6%[38.3 µM],-6.7,-0.5%,13%,16
Cc1csc(NC(=O)[C@@H]2CCCN2C(=O)c2cccs2)n1,26,0.4,-1.7%,2.3,/,16%,22
CCN(CC)c1ncnc2c1ncn2[C@H]1CN(Cc2ccccc2)C[C@@H](COC(C)=O)O1,/,-1.0,0.5%,/,-3.9%,/,/
CCCC(=O)N1CCC1(C)C(=O)Nc1ccc(-n2cncn2)cc1 (stereo not given),/,-0.1,2.0%,/,-3.7%,/,/
Cc1cc(C(F)(F)F)nc2c(Cl)c(C(C)(C)C)nn12,0,1.0,0.0%,-2.0,/,8%,-4
Cc1ccc(SC(=O)COc2ccccc2C)cc1,7,-1.2,-1.7%,0.7,1.7%,5%,1
O=C(NCc1nc2ccccc2[nH]1)C1=C[C@H](c2ccccc2)C[C@H](OCCCCO)O1,-36,-0.3,-0.7%,1.0,0.1%,11%,26
O=C(CCCn1cc([N+](=O)[O-])cn1)Nc1cccnc1,-14,-0.8,-0.8%,-0.3,/,10%,-12
CC1CCCC(C)N1C(=O)COC(=O)/C=C/c1ccco1 (stereo not given),/,0.2,0.5%,/,-2.1%,/,4
COc1ccc(CNC(=O)C(=O)Nc2ccc(OC)cc2OC)cc1,/,2.3,2.9%,/,1.0%,/,-9
O=C(Nc1ccc(N2CCCC2)c(Cl)c1)c1cccc(-c2cc3ccccc3oc2=O)c1,23,0.1,3.8%,2.5,?,8%,-10
O=C(CN1C(=O)COc2ccc(Cl)cc21)Nc1ccc(N2CCOCC2)cc1,-7,0.1,-1.4%,/,1.7%,10%,-1
COc1cc(C=C2CCCC(=Cc3ccc(OCC4CO4)c(OC)c3)C2=O)ccc1OCC1CO1 (stereo not given),/,2.0,12%,/,2.5%,/,23
O=C(CN1CCN(S(=O)(=O)N2CCCCCC2)CC1)Nc1ccc(Br)cc1,-11,0.9,-2.0%,/,-0.5%,18%,12
CN(CC(=O)Nc1c(Cl)cccc1Cl)C(=O)c1ccc2nc[nH]c2c1,-15,0.8,-4.4%,/,/,/,5
Cc1ccc(OCc2nnc(NC(=O)Cc3cccs3)s2)cc1,2,/,/,0.0,/,8%,/
CCCCCc1c(-c2ccccc2OC)ncn1CCc1ccccc1OC,/,0.3,?,/,-4.8%,/,/
O=C(Nc1cccc(S(=O)(=O)N2CCOCC2)c1)C1CCCCN1S(=O)(=O)c1ccccc1 (stereo not given),3,2.2,2.3%,/,1.3%,/,-19
CCCN(C(=O)Cn1cnc2onc(-c3ccc(F)cc3)c2c1=O)c1cccc(Cl)c1,/,2.6,-4.0%,/,-3.0%,/,2
Cc1ccc2c(c1)CO[C@]21O[C@H](CCO)C[C@H](O)[C@H]1O,/,0.0,1.1%,/,1.2%,/,0
Cc1cc2c(cc1C)N(Cc1ccc(Cl)cc1)C1=NCCCN12,/,-0.1,-1.5%,/,-1.5%,/,1
O=C1c2ccccc2-c2c1cccc2C(=O)N1CCCCC1,-9,-0.1,0.5%,3.0,-2.0%,6%,7
O=c1[nH]c(SCc2nc3c(cnn3-c3ccccc3)c(=O)[nH]2)nc2ccccc12,21,-0.8,?,?,7.4%,-4%,2
O=C(Nc1cccc2c1CCCC2)c1ccc(F)cc1,/,-0.4,6.9%,/,-12%,/,1
CC(=O)N1CC(C)Sc2ccc(S(=O)(=O)NCCc3cccc(C)c3)cc21 (stereo not given),-5,2.1,1.8%,1.8,0.2%,15%,11
# Next compounds
SMILES,TRPV1 PAM,TRPML1 ag,PINK1 modulator,Menin-MLL FL inh,ClpP mod,Sfp PPTase inh,TRPML1 blocker
COc1cc(S(=O)(=O)n2nnc3ccccc32)c(OC)cc1Cl,2,2.9,-0.2%,4.4,0.0%,-1%,-6
Cc1ccc(-c2noc(-c3ccc(NCC4CCCO4)c([N+](=O)[O-])c3)n2)cc1 (stereo not given),/,-0.1,0.6%,/,-0.2%,/,-21
O=C(/C=C/Nc1ccccc1)C(F)(F)F,3,1.0,-0.8%,-3.3,-0.8%,2%,-25
CC(C)Oc1ccc(CNC(=O)c2ccc3nc(N4CCOCC4)sc3c2)cc1,-15,0.2,3.6%,-0.3,-17%,13%,4
CN(C)CCN(Cc1ccco1)S(=O)(=O)c1csc(C(N)=O)c1,22,-0.5,-0.1%,-1.6,0.1%,14%,20
Cc1ccc(NC(=O)Nc2ccc3c(c2)OCO3)c(Br)c1,-4,-0.8,9.1%,-1.4,0.9%,4%,-3
O=c1c2ccccc2ncn1Cc1ccc(Cl)cc1,3,2.2,-0.6%,-2.9,-4.4%,11%,40
Cc1ccccc1C(=O)Nc1nnc2n1CCS2,/,0.4,-4.8%,/,-0.8%,/,-7
Cc1[nH]c2ccccc2c1C(=O)CN1CC(C)OC(C)C1 (stereo not given),15,-0.2,1.9%,2.9,0.2%,8%,-12
COc1ccc(N2CCN(C(=O)NC3CCCCC3)CC2)cc1,?,-0.6,-3.4%,8.1,9.4%,8%,-21
COc1ccc2nc(N/C(=N/S(=O)(=O)c3cccs3)c3ccccc3Cl)sc2c1,17,1.3,-2.6%,0.9,/,16%,-15
COc1cc2c(cc1OC)C(c1cc3cc4c(cc3[nH]c1=O)OCO4)N(C(=O)C1CC1)CC2 (stereo not given),2,2.0,-2.3%[38.3 µM],-1.2,25µM*,40µM*,19
CCOc1ccc(N(C(=O)c2ccc(S(=O)(=O)N3CCCC3)cc2)C2C=CS(=O)(=O)C2)cc1 (stereo not given),0,-0.1,0.1%,0.4,0.5%,18%,-18
COc1ccc2nc(-c3ccc(Cl)cc3)cc(C(=O)O)c2c1,-3,0.3,-1.0%,3.5,3.9%,19%,-3

# Screening results deposited in PubChem by National Center for Advancing Translational Sciences (NCATS).

# The order is random, and some 4.4% of all compounds hit somewhere here.
